H5N1 antiviral – antiviral screen in MDCK cells, H5N1 avian flu; inhibition, % at 50 µM; cytopathic effect, luminescence, 72 h; hits give high values; no value below 0 was filed and about half of the inactive calls have no number; reference of the scale not given here; 96,000 compounds, 0.07% hits; in the data active means inhibition above about 25%
The depositor's hits bear a star; i = inactive. These rows are one share of the data; the hit share may differ from the screen's.

Preview (six entries):
SMILES | H5N1 antiviral
C[C@@H]1C[C@H](Nc2ccccc2)c2ccccc2N1C(=O)c1cccnc1 | 2.5
O=C(NCc1ccc(F)cc1)C1CCCN(S(=O)(=O)c2cccnc2)C1 (stereo not drawn) | i
O=C1CN(C(=O)COc2ncnc3ccccc23)c2ccccc2N1 | i
Cc1ccc2c(c1)NCCO2 | 0.4
CCOc1ccc2nnnn2n1 | i
COc1cccc(C(=O)OCc2ccccc2C#N)c1O | i

The listing (from the top)
SMILES | H5N1 antiviral
C[C@@H]1C[C@H](Nc2ccccc2)c2ccccc2N1C(=O)c1cccnc1 | 2.5
O=C(NCc1ccc(F)cc1)C1CCCN(S(=O)(=O)c2cccnc2)C1 (stereo not drawn) | i
O=C1CN(C(=O)COc2ncnc3ccccc23)c2ccccc2N1 | i
Cc1ccc2c(c1)NCCO2 | 0.4
CCOc1ccc2nnnn2n1 | i
COc1cccc(C(=O)OCc2ccccc2C#N)c1O | i
O=c1c2c3c(sc2ncn1/N=C/c1ccco1)CCCC3 | 0.0
COc1ccc(NC(=S)NCC2CCCO2)c(OC)c1 (stereo not drawn) | i
CCOC(=O)CN1N=C(/C=C/c2ccc(OC)cc2)CCC1=O | 0.3
CN(C(=O)c1cccc(C#N)c1)c1nnc(-c2ccccn2)s1 | i
CCCCn1c(O)c(C=NC2CC3CCC2(C)C3(C)C)c(=O)[nH]c1=O (stereo not drawn) | 1.1
CC(C)OC(=O)Cn1cnc2ccc(Br)cc2c1=O | 0.3
Cc1ccc(S(=O)(=O)N2CCC(C(=O)NCCCOC(C)C)CC2)cc1 | 0.1
O=C(c1cccs1)N1CCN(C(=O)C(c2ccccc2)c2ccccc2)CC1 | 1.6
COc1ccc(-c2csc(N3CCN(Cc4ccc5c(c4)OCO5)CC3)n2)cc1 | i
CCOC(=O)C1CCCN(C(=O)c2sc3nc(-c4ccc(OC)cc4)cn3c2C)C1 (stereo not drawn) | 1.3
Cc1nn2cc(-c3ccc(N)cc3)nc2s1 | i
CC(C)C(c1nnnn1C1CCCC1)N1CCN(c2ccccc2F)CC1 (stereo not drawn) | 0.1
COC(=O)c1ccc(Oc2nc(Nc3ccc(F)cc3)nc(N3CCCC3)n2)cc1 | 0.6
CCCC(=O)N1c2ccccc2[C@@H](N(C(C)=O)c2ccccc2)C[C@H]1C | 24.8
O=C1NC2(CCCCC2)N=C1c1ccccc1 | 0.1
Cc1onc(-c2ccccc2)c1C(=O)Nc1ccc(S(=O)(=O)NC2=NCCCCC2)cc1 | i
C#CCOC(=O)CCCNc1ccc([N+](=O)[O-])cc1[N+](=O)[O-] | 0.7
COc1ccc(CN2CC(C(=O)N3CCOCC3)CC2=O)cc1 (stereo not drawn) | 0.1
Cc1c(C)n(C(=O)CN2CCN(c3ccccn3)CC2)c2ccccc12 | i

The list goes on.
SMILES | H5N1 antiviral
CCCCNS(=O)(=O)c1cccc(S(=O)(=O)N2CCCC2)c1 | 0.9
O=C(NC1CCCCC1)C(c1ccccc1)N(Cc1ccco1)C(=O)Cn1cnc2ccccc21 (stereo not drawn) | 0.6
CC(=O)N=c1sc2nc3ccccc3nc2n1N(C(C)=O)C(C)=O | 0.6
COc1ccc(S(=O)(=O)N2CCCC(C(=O)NCc3ccncc3)C2)cc1Cl (stereo not drawn) | 0.6
COc1cccc(C2C(C#N)=C(N)OC3=C2C(=O)CCC3)c1OC(=O)c1ccco1 (stereo not drawn) | i
CN1CCN(Cc2ccccc2C(F)(F)F)CC1 | 0.1
O=C1NCCCC1C(=O)Nc1ccccc1C(F)(F)F (stereo not drawn) | i
CC(O)C(=O)NCCOCCOCCNC(=O)C(C)O (stereo not drawn) | i
COc1ccc(/C(N)=N/OC(=O)c2cccc([N+](=O)[O-])c2)cc1OC | 0.8
CC(C)Oc1ccc(CNC(=S)N/N=C/c2ccc([N+](=O)[O-])cc2)cc1 | 0.1
O=C1CC(N2CCN(c3cccc(C(F)(F)F)c3)CC2)C(=O)N1c1ccc(F)cc1 (stereo not drawn) | i
COC(=O)c1sc(N2C(=O)c3oc4ccccc4c(=O)c3C2c2cccs2)nc1C (stereo not drawn) | i
Cn1c(SCC(=O)Nc2cccc(NC(=O)c3cccs3)c2)nnc1-c1ccncc1 | 2.4
Cc1nc2ncnn2c(C)c1CCC(=O)NCCCN1CCN(c2cccc(Cl)c2)CC1 | 3.0
Cc1c(Cl)c(C(=O)NNC(=S)Nc2ccccc2)nn1C | 0.9
CCn1nc(C)c(/C=N/NC(=O)c2ccoc2C)c1C | i
N#CC(c1ccccc1)(c1ncc(C(F)(F)F)cc1Cl)N1CCOCC1 (stereo not drawn) | i
CCOc1ccc2[nH]c(=O)c(CN(CCCO)C(C)=O)cc2c1 | 1.0
Nc1nc(C(=O)N2CCOCC2)nn1C(=O)c1ccc(Cl)cc1 | i
O=C(NC1CCN(C(=O)NCc2ccccc2)CC1)c1ccco1 | 0.2
COc1cccc(-c2nnn(CC(=O)Nc3ccc(C)cc3C)n2)c1OC | 0.8
CC(C)(C)c1ccc(S(=O)(=O)N2CC(=O)Nc3ccccc32)cc1 | i
O=C(NC(C(=O)N/N=C/c1ccccc1)c1n[nH]c(=O)c2ccccc12)c1ccccc1 (stereo not drawn) | i
C=C(C)c1cccc(C(C)(C)NC(=O)N2CCCCC2CC)c1 (stereo not drawn) | i
CCCCn1nc(NC(=O)c2cccs2)c2cc3ccccc3nc21 | i

Given field by field: part of the list above.
CC(O)C(=O)NCCOCCOCCNC(=O)C(C)O (stereo not drawn)
  H5N1 antiviral: i
COC(=O)c1sc(N2C(=O)c3oc4ccccc4c(=O)c3C2c2cccs2)nc1C (stereo not drawn)
  H5N1 antiviral: i
Cc1nc2ncnn2c(C)c1CCC(=O)NCCCN1CCN(c2cccc(Cl)c2)CC1
  H5N1 antiviral: 3.0
CCCCn1nc(NC(=O)c2cccs2)c2cc3ccccc3nc21
  H5N1 antiviral: i

Additional entries follow.
SMILES | H5N1 antiviral
Cc1cc2c(cc1C)N(C(=O)CSC1=NCCS1)C(C)(C)c1ssc(=S)c1-2 | 1.1
Cn1c(=O)n(C)c2cc(S(=O)(=O)NCCO)ccc21 | 0.8
CCC1CCCCN1c1nc(-c2ccncc2)nc2ccccc12 (stereo not drawn) | i
O=C(NCc1ccco1)C1CCN(S(=O)(=O)c2cccc3cccnc23)CC1 | 2.2
O=C(Nc1ccc2c(c1)OCO2)C1CCCN1C(=O)OCc1ccccc1 (stereo not drawn) | i
O=C(CN1C(=O)c2ccccc2C1=O)N1CCOCC1 | i
Cc1cc2n(n1)C(c1c[nH]c3ccccc13)Nc1ccccc1-2 (stereo not drawn) | i
COc1ccc(NC(=O)[C@@H]2[C@@H]3C(=O)N(C4CCCCC4)C(=O)[C@@H]3C3c4ccccc4C=CN32)cc1 (stereo partly drawn) | i
COc1ccc2[nH]c(=O)c(CN(CCc3cccc(C)c3)C(C)=O)cc2c1 | 3.1
N#CC1(Cc2ccccc2)c2ccccc2C=CN1C(=O)c1ccccc1 (stereo not drawn) | 2.3
CCOCC(=O)Nc1nc2ccc(OCC)cc2s1 | 2.0
CSc1ccccc1NC(=O)Nc1cccc(Cl)c1Cl | i
Cn1c(NC(=O)C(C)(C)Oc2ccc(Cl)cc2)cc(=O)n(C)c1=O | 0.7
CCN1CCN(c2ccc(NC(=O)c3cccc4ncccc34)cc2)CC1 | 0.7
COc1ccc2[nH]c(=O)c(CN(C(=O)NC3CCCCC3)C3CCCC3)cc2c1 | i
Cc1cccc(C)c1NC(=O)C(NC=O)c1ccccc1 (stereo not drawn) | i
COc1cc2c(cc1OC)-c1cc(OCc3ccccc3Cl)nc(=O)n1CC2 | i
CSC(=Nc1ccccc1)C1=C(O)COC1=O | i
Cc1cccc(N2CCN(Cc3c(C)n(C)n(-c4ccccc4)c3=O)CC2)c1C | 0.9
Cc1nn(Cc2ccc(Cl)c(Cl)c2)c(C)c1NC(=O)c1cc(-c2ccc3c(c2)OCO3)on1 | 3.8
CC(=O)Nn1cc2c(c1-c1ccccc1)c(=O)n(C)c(=O)n2C | 0.2
O=C(Oc1ccc(/C=N/Nc2ccccc2)cc1)c1ccccc1 | i
CC1Sc2ccc(C(=O)O)cc2NC1=O (stereo not drawn) | i
Cc1ccc2nc(C3CCN(C(=O)c4ccco4)CC3)[nH]c2c1 | 0.7
COc1ccc(CN2CC(C(=O)NCCCOC(C)C)CC2=O)cc1 (stereo not drawn) | i

New compounds follow:
SMILES | H5N1 antiviral
CC(=O)Nc1cnn(Cc2ccc(Br)cc2)c1 | i
CCOC(=O)N1CCC(N2C(=O)c3ccc(C(=O)NCc4ccco4)cc3C2=O)CC1 | 0.1
CCOC(=O)CSc1nc2c(c(=O)[nH]c(=O)n2C)n1C/C=C(/C)Cl | 2.7
COc1ccc(OC)c(NC(=O)CSC2=C(C#N)C(c3ccco3)C3=C(CCCC3=O)N2)c1 (stereo not drawn) | 0.9
CCCCn1nnc(NC(=O)c2ccco2)n1 | 0.2
CCNc1nc(NCC)nc(OCCOC(=O)c2ccccc2)n1 | i
COCCCNC(=O)CC(NS(=O)(=O)c1ccc(OC)cc1)c1ccc(OC)cc1 (stereo not drawn) | i
CCCN(CCC)CCNc1c(N2CCN(C(=O)OCC)CC2)c(=O)c1=O | 0.8
COc1ccc(NC(=O)CC(C(=O)O)N2CCCCC2)cc1 (stereo not drawn) | 0.4
O=C(NOC(=O)c1ccccc1Cl)c1cccs1 | 0.9
COc1cc(OC)cc(C(=O)NC2CC3CCC(C2)N3Cc2ccco2)c1 (stereo not drawn) | i
Cc1ccc(SCC2=NNC(=O)C2)cc1 | i
O=C(NCc1ccco1)c1ccc(OCC2CCCO2)cc1 (stereo not drawn) | 0.7
O=C(Nc1ccc2oc(-c3cccnc3)nc2c1)c1cccnc1 | 0.9
Cc1ccc(NS(=O)(=O)c2ccc(N3C(=O)CCC3=O)cc2)cc1 | i
CCc1cc2c(=O)c(-c3nc4ccccc4[nH]3)coc2cc1OC(=O)N1CCOCC1 | i
COC(=O)c1cn(-c2ccc(Cl)cc2)c(=O)c2ccccc12 | i
Fc1ccc(OCc2nn3cnnc3s2)cc1 | 0.3
NC(=O)CN1C2CCC1CC(NC(=O)C1CC1)C2 (stereo not drawn) | 1.9
O=C(CC12CC3CC(CC(C3)C1)C2)N1CCOCC1 | 1.0
Cc1ccc2c(c1)cc(CN(CCc1ccccc1)C(=O)N1CCOCC1)c1nnnn12 | 3.5
Cc1ccc(C)c(N2CCN(C(=O)c3ccc(CS(=O)(=O)c4ccccc4C)o3)CC2)c1 | i
Cc1ccc2nc(SCc3nnc(-c4ccccc4[N+](=O)[O-])o3)c(C#N)cc2c1 | 0.1
Cc1ccccc1C(=O)Nc1ccc(Br)cn1 | i
Cn1c(C(=O)NC2CCCCC2)cc2sccc21 | i

Remaining list, next part.
SMILES | H5N1 antiviral
CN(C)S(=O)(=O)Oc1ccc(Cl)cc1C(=O)Nc1cccc(C(F)(F)F)c1 | i
Cc1cccc(NC(=O)c2ccc3ccccc3n2)n1 | i
C=CCN=C1SC(CC)C(=O)N1S(=O)(=O)c1ccc(C)cc1 (stereo not drawn) | 0.9
CCOc1ccc(-c2nc(-c3ccc(OC)c(OC)c3)no2)cc1OCC | i
CCN1CCN(C(c2cccs2)C(C)NC(=O)NC2CCCCC2)CC1 (stereo not drawn) | i
O=C(CN(C(=O)Cn1nnc(-c2cccs2)n1)c1ccc2c(c1)OCCO2)NC1CCCCC1 | i
Nc1cc(N)nc(SCC(=O)c2ccccc2)n1 | i
Cc1csc(SCC(=O)c2cc(C)n(Cc3cccs3)c2C)n1 | i
Cc1noc(C)c1S(=O)(=O)N1CCCC(C(=O)NCCc2ccccc2)C1 (stereo not drawn) | 0.5
COc1cc(C(=O)n2nc(C)cc2C)cc(OC)c1OC | i
Cc1cc(C(F)F)n2ncc(C(=O)NCc3ccccc3)c2n1 | i
Cn1c(SCC(=O)NC2CC2)nnc1-c1ccco1 | i
COc1ccc(OC)c(C2NC(=O)NC(C)=C2C(=O)Nc2ccc(C)cc2)c1 (stereo not drawn) | i
Cc1ccnc(N2CCC(C(=O)NNC(=O)c3ccccc3C)CC2)n1 | 0.1
O=C(NC1CCCC1)c1cnc2n(c1=O)CCS2 | 0.4
O=C(CSc1ccc(Cl)cc1)Nn1cnnc1 | 0.9
C=CCN(C(C)=O)C1CC(=O)N(c2ccc(OCCC)cc2)C1=O (stereo not drawn) | 0.7
O=C(NCc1cccs1)c1ccc(N2CCCCC2)nc1 | 26.0*
Cc1ccc2nc(SCc3ccc([N+](=O)[O-])cc3)[nH]c2c1 | i
O=C(NCC(=O)N(CCN1CCOCC1)C(C(=O)NC1CCCC1)c1cccs1)c1ccco1 (stereo not drawn) | 0.4
CCCCOC(=O)CCc1c(C)[nH]c(=S)[nH]c1=O | 1.4
CCn1c(C(Cc2ccccc2)NC(=O)COC)nc2ccccc21 (stereo not drawn) | 1.1
CCOc1ccc(C2=Nc3ccccc3C(c3ccc(N4CCOCC4)cc3)=NN2)cc1 | i
Cc1cccc(NC(=O)CSc2nnc(CSc3nc(C)cc(C)n3)n2Cc2ccco2)c1 | i
Cn1c(CN2CCCCC2)nc2cc(NS(=O)(=O)c3ccc(Cl)cc3)ccc21 | 0.1

(more compounds)
SMILES | H5N1 antiviral
CC(=O)Cc1nsc(NC(=O)c2cn(-c3ccccc3)nc2-c2ccc(Br)cc2)n1 | i
Cc1ccc(-c2csc(=S)n2CC(=O)OCC(=O)NCc2ccco2)cc1 | 0.4
Cc1ccc(S(=O)(=O)NC(=O)N2CCC(C)CC2)cc1 | 0.3
CCOC(=O)C(CCC#N)(CCC#N)C(=O)OCC | i
O=C(c1cccc(Br)c1)N1CCCC1 | 1.1

Compound activity (PubChem BioAssay)
